# Six1-Eya2 blk = qHTS Assay for Inhibitors of the Six1/Eya2 Interaction; AlphaScreen GST-Six1/His-Eya2 binding, biochemical; active compounds read low; control for the full effect not named in the record; Homeobox protein SIX1 (Homo sapiens) + Protein phosphatase EYA2 (Homo sapiens), …; 360,000 tested, 0.56% active; activity change, % (no concentration beside the values); in the data active = activity change below about -65%; inconclusive = about -30% to -65%; inactive = above about -30%; further: on the % scale 0 is the no-effect control and ±100 the full control effect
#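 AlphaScreen with GST-Six1 and His-Eya2 (5X mix: 250 nM and 500 nM), glutathione donor and nickel acceptor beads; buffer 50 mM Tris pH 8.0, 300 mM NaCl, 1 mM TCEP; 1 h at 37 C in the dark.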
# PINK1 expr mod = A Quantitative High throughput Screen to Identify Chemical Modulators of PINK1 Expression | PINK1 immunofluorescence, high-content cytometry, 24 h | AID 624263, 2012 | 410,000 tested, 0.2% active | Potency, µM (titrated, usually from 76.6 µM), inactives show at the highest dose activation (PINK1 increase), hits mostly activators; active = well fitted activation curve with a large enough effect; inconclusive = small, poorly fitted or top-dose-only effect; inactive = flat fitted curve, though single readings scatter; cell line not stated here;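 further: potency means the concentration at half of the fitted maximal effect; % of control where 0% means no effect; nearly all actives have a fitted effect of over 65% in size; a mitochondrial uncoupler was the plate control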
#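 Stable cell line treated 24 h with compounds at 5 concentrations (CCCP controls), then fixed and immunostained for PINK1 plus nuclear and cell stains; PINK1 immunofluorescence quantified by laser-scanning microplate cytometry.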
# D2 potentiator = Beta-Arrestin HTS for Positive Allosteric Modulators of the Human D2 Dopamine Receptor: Potentiators | DiscoveRx D2 beta-arrestin cells, luminescence, 90 min; 100% = 57 uM dopamine signal | D(2) dopamine receptor (Homo sapiens), P14416 | potentiation, % (test concentration not listed) | 360,000 tested, 0.23% active; active = potentiation of 50% or more; inconclusive = 30% to 50%; inactive = 30% or less;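 further: compound concentration not given in the record; tested on top of an EC20 dose of dopamine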
# Target sequence (P14416 whole entry, looked up): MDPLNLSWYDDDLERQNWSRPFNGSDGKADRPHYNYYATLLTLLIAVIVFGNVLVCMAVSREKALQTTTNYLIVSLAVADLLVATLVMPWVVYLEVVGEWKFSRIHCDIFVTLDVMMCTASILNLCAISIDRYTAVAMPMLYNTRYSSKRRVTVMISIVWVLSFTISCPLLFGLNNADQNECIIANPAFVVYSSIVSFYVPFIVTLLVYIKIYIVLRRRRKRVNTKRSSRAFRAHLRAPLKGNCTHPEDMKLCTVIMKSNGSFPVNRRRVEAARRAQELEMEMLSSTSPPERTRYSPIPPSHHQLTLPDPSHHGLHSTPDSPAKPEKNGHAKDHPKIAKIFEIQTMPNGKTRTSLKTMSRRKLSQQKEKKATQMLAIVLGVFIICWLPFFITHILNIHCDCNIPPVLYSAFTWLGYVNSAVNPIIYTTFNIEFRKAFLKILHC
#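 PathHunter D2 cells, attached overnight at 37 deg C, received compound in DMSO plus dopamine at EC20 (50 nM final) for 90 min at 37 deg C. Beta-arrestin recruitment was read as luminescence after 1 h with detection reagent at ambient temperature.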
# TRPML1 ag = qHTS for Agonists of the Human Mucolipin Transient Receptor Potential 1 (TRPML1); Mucolipin-1 (Homo sapiens), Q9GZU1; TRPML1-expressing cells, Ca2+ dye fluorescence, FDSS; host cell line not named in the record; reference of the full effect not given here; activation, % (test concentration not listed); 410,000 tested, 0.12% active; in the data active = activation above about 50%; inconclusive = about 30% to 50%; inactive = below about 30%; further: 0% is about no effect; the text of the record puts the active cut at 80%
# Target sequence (Q9GZU1 whole entry, looked up): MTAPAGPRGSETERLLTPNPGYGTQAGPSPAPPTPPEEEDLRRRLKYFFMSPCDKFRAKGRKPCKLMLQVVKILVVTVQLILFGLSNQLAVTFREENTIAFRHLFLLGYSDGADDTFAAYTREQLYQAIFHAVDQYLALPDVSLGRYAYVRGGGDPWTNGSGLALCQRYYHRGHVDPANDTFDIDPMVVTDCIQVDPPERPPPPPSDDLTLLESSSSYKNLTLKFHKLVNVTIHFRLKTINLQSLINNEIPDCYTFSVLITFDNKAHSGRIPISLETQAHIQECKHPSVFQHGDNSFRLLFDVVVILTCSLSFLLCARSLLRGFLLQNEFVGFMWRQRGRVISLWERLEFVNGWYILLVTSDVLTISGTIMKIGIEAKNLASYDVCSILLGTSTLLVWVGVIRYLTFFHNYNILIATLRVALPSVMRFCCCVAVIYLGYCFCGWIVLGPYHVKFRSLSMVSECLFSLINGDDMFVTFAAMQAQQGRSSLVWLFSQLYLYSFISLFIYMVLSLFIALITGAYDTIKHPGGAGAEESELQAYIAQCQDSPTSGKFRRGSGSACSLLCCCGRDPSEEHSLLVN
#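 Cells: TRPML1-DL, 1X Tet inducer, ~16 h at 37 degrees C/5% CO2. Dye: ABD Ca8 no-wash + quencher, 45-90 min RT. Read: 10 s baseline, compound add, 110 s agonist phase; 54-4 EC80 (4uM final), 110 s antagonist phase.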
# CtBP-E1A inh = qHTS Assay for Inhibitors of the CtBP/E1A Interaction; activity change, % (test concentration not listed); CtBP / adenovirus E1A interaction (AlphaScreen); AlphaScreen GST-E1A/His-CtBP binding, 1536-well; active compounds read low; control for the full effect not named in the record; 340,000 tested, 0.49% active; in the data active means activity change below about -65%; inconclusive means about -30% to -65%; inactive means above about -30%; further: on the % scale 0 is the no-effect control and ±100 the full control effect
#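 Steps: dispense buffer (Tris pH 8.0, NaCl 300 mM, TCEP 1 mM, BSA, Tween 20); add 5X protein mix (GST-E1A, His-CtBP, 125 nM each); pin 23 nL compound; 2 h at 37 °C, dark; add 5X beads (50 ug/mL); 1 h; read.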
# D2 agonist = Beta-Arrestin HTS for Positive Allosteric Modulators of the Human D2 Dopamine Receptor: Agonists; D(2) dopamine receptor (Homo sapiens), P14416; DiscoveRx PathHunter D2 beta-arrestin, luminescence, 90 min; 100% = 57 uM dopamine signal; activation, % (concentration not given with the values); 360,000 tested, 0.084% active; AID 624465, 2012; in the data active = activation above about 40%; inconclusive = about 15% to 40%; inactive = below about 15%; further: compound concentration not given in the record; the text of the record calls up to 30% inactive
#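 DiscoveRx PathHunter D2 beta-arrestin cells (2,100/well) attached overnight, then compound-stimulated 90 min at 37 C in HBSS/10 mM HEPES/0.1% Tween-20 buffer; beta-galactosidase complementation read by luminescence after 1 h at ambient temperature. Dopamine 57 uM final (EC100) as control.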
# * hit, by the source's call; u = inconclusive; x = not tested or not shown; & = joins results of further samples; [ ] = remark or other dose.
SMILES,Six1-Eya2 blk,PINK1 expr mod,D2 potentiator,TRPML1 ag,CtBP-E1A inh,D2 agonist
O=C(c1ccc(Cl)cc1)N1N=C(c2ccccn2)CC1(O)C(F)(F)F (stereo unspecified),3.6,11.0%,-0.2,2.4,-6.0,3.4
O=C(Nc1nccs1)C1CC(=O)N(Cc2ccco2)C1 (stereo unspecified),-2.2,4.5%,9.4,-0.9,-12.2,-4.1
CC1CCCC(NC(=O)CCS(=O)(=O)c2cc3c(cc2Cl)NC(=O)CO3)C1C (stereo unspecified),5.3,-0.2%,-3.8,0.1,4.0,3.0
NC(=S)c1c(Cl)cc(C(F)(F)F)cc1Cl,-2.5,2.1%,-16.9,1.6,-4.6,-2.5
Cn1c(=O)n(C)c2cc(S(=O)(=O)N3CCN(c4ccccc4)CC3)ccc21,3.1,15.3%,-7.3,-0.1,9.8,-0.6
CCCCn1c(N)c(N(CC)C(=O)c2ccc(Cl)c([N+](=O)[O-])c2)c(=O)[nH]c1=O,5.1,1.1%,5.1,0.4,0.0,-1.9
CCOc1c(C)cc(S(=O)(=O)NCc2ccccn2)c(C)c1C,2.2,-1.2%,-3.8,-0.5,-3.6,7.7
CCOC(=O)c1c(C)nc2sc3c(c2c1-c1ccc(OC)cc1)NC(c1ccc(OC)cc1)NC3=O (stereo unspecified),17.2,13.0%,-13.6,0.6,0.9,-3.6
COc1ccc(NC(=O)N2CCCC2C(=O)NCCc2ccccc2)cc1 (stereo unspecified),-2.6,1.2%,-2.3,-0.6,8.5,-1.7
NS(=O)(=O)c1ccc(N/N=C/c2ccc[nH]2)c([N+](=O)[O-])c1,u,3.3%,-22.1,0.5,x,-9.0
CC(=O)Nc1ccc(C(=O)OCCc2ccccc2)cc1,8.3,5.8%,-0.6,-0.2,4.8,5.4
NS(=O)(=O)c1ccc(NC(=O)CSc2nc3ccccc3n2-c2ccccc2)cc1,-5.6,15.1%,3.3,3.2,-12.3,3.8
CC1CCN(C(=O)CCCOc2ccc(Cl)cc2)CC1,9.1,0.7%,-20.3,-0.7,3.0,-3.9
Clc1ccc(-n2c(SCc3nc4ccccc4[nH]3)nnc2-c2ccncc2)cc1,-0.9,1.6%[38.3 µM],-12.4,-0.8,13.4,-0.3
CCC(C)NCCCCOc1ccc(Cl)cc1C (stereo unspecified),4.2,10.2%,-26.3,1.1,6.9,-3.8
O=C(Nc1ccon1)Nc1ccccc1C(F)(F)F,-8.3,0.0%,-3.8,0.4,6.9,-7.5
Cc1ccc(/C=C/C(=O)Nc2sc3c(c2C#N)CCCC3)o1,-4.8,1.8%,-4.0,3.4,-13.4,1.1
O=C(CN1C(=O)/C(=C/c2cccc(Cl)c2)SC1=S)NC1C=CS(=O)(=O)C1 (stereo unspecified),-17.0,0.6%,-27.0,0.6,-8.4,-3.6
CCN1C(=O)[C@H]2[C@H]3CN=C(SCc4ccc(C)cc4)N3[C@@](CC)(C(=O)OC)[C@H]2C1=O,2.1,-0.5%,-3.1,-0.5,-21.4,1.3
COc1ccc(NS(=O)(=O)c2cc(OC)ccc2NC(=O)c2cc(C)oc2C)cc1,-20.2,5.9%,2.7,-1.2,-4.0,-3.1
CCn1ncc(Br)c1C(=O)Nc1cccc(C(C)=O)c1,9.3,1.4%,6.6,-0.8,-1.8,-1.6
COc1ccc(NS(=O)(=O)c2cccc(C(=O)NCc3ccccc3CN3CCOCC3)c2)cc1,4.7,1.2%,-2.9,0.8,13.9,5.4
O=C(Nc1ccc(Cl)cc1)Nc1nnc(Cc2ccc([N+](=O)[O-])cc2)s1,8.3,4.1%,2.0,-0.1,11.3,0.7
COc1ccc(CNC(=O)CN2C(=O)COc3ccc(S(=O)(=O)N4CCC(C)CC4)cc32)cc1,0.2,0.0%&1.1%,-0.2,0.4&2.4,0.9,-0.8
COc1c(C)cccc1C(=O)NC(=S)Nc1ccc2c(c1)Cc1ccccc1-2,-2.5,0.1%,-25.2,-0.3,2.4,-4.1

# Entries of single compounds from above. Values in the order: Six1-Eya2 blk	PINK1 expr mod	D2 potentiator	TRPML1 ag	CtBP-E1A inh	D2 agonist
# Record of CC(=O)Nc1ccc(C(=O)OCCc2ccccc2)cc1 = 8.3	5.8%	-0.6	-0.2	4.8	5.4
# Record of Cn1c(=O)n(C)c2cc(S(=O)(=O)N3CCN(c4ccccc4)CC3)ccc21 = 3.1	15.3%	-7.3	-0.1	9.8	-0.6
# Record of O=C(Nc1nccs1)C1CC(=O)N(Cc2ccco2)C1 (stereo unspecified) = -2.2	4.5%	9.4	-0.9	-12.2	-4.1
# Record of CCOc1c(C)cc(S(=O)(=O)NCc2ccccn2)c(C)c1C = 2.2	-1.2%	-3.8	-0.5	-3.6	7.7
# Record of O=C(CN1C(=O)/C(=C/c2cccc(Cl)c2)SC1=S)NC1C=CS(=O)(=O)C1 (stereo unspecified) = -17.0	0.6%	-27.0	0.6	-8.4	-3.6

# Continuation.
SMILES,Six1-Eya2 blk,PINK1 expr mod,D2 potentiator,TRPML1 ag,CtBP-E1A inh,D2 agonist
CC(=O)Nc1ccc(NC(=O)CSc2nnc(-c3ccc(NS(C)(=O)=O)cc3)n2C)cc1C,-1.7,0.1%,-8.4,1.0,x,-5.3
Cc1ccc(C(=O)Oc2cc(N)n(S(=O)(=O)c3ccc(C)cc3)n2)cc1,-7.7,-0.3%,1.3,4.9,10.1,1.5
N#Cc1c(-c2ccccc2)ccn(Cc2ccccc2Cl)c1=O,7.8,-3.8%,0.4,2.5,-9.4,-5.2
CCOc1cc(CNc2ccc(OC)cc2)cc(Br)c1OCC(=O)NC(C)(C)C,u,x,9.8,1.9,12.3,2.5
Cc1[nH]c2ccccc2c1SCC(=O)N1CCCc2ccccc21,-0.8,4.1%,-5.6,0.1,-5.0,-4.5
CCOC(=O)C1CCCN(CCC(=O)Nc2cc(C)ccc2C)C1 (stereo unspecified),-1.1,-0.7%,-12.1,0.6,x,0.2
COC(=O)c1cc2ccsc2n1CC(=O)N1CCCc2ccccc21,-5.8,x,-5.4,0.2,4.2,-2.7
Cc1ccc(C2NC(=O)NC3=C2CCc2ccccc23)cc1 (stereo unspecified),-1.2,3.4%[38.3 µM],9.2,6.0,-4.8,3.3
COc1ccc(NC(=O)N(Cc2cccnc2)Cc2ccccc2Cl)c(OC)c1,-4.6,1.5%,-13.3,0.5,-5.9,-5.8
COc1ccc(NS(=O)(=O)c2cc(NC(=O)CCc3ccc(OC)c(OC)c3)ccc2N2CCOCC2)cc1,-3.8,0.2%,-4.9,-0.7,-6.7,11.6
CCOc1ccccc1OCC(=O)Nc1c(C)n(C)n(-c2ccccc2)c1=O,1.3,0.3%,-14.2,4.9,9.4,0.1
CC(/C=C/C=C/c1ccccc1)=N/NC(=O)C(O)c1ccccc1 (stereo unspecified),-9.5,2.9%,-5.4,0.8,0.8,-1.8
Cc1ccnc(SC2CC(=O)N(c3ccc([N+](=O)[O-])cc3)C2=O)n1 (stereo unspecified),-6.8,0.7%,-15.0,-0.5,x,-2.5
O=C(NCc1ccco1)c1ccc([N+](=O)[O-])o1,-14.4,-0.9%,13.9,-0.1,-0.6,2.1
O=C(Nc1cccn2ncnc12)c1ccc(Cl)cc1Cl,3.4,-0.1%,-8.9,0.0,-1.5,-3.8
Cc1ccc([N+](=O)[O-])cc1S(=O)(=O)Nc1cccc(-c2ccc(N3CCOCC3)nn2)c1,4.5,6.6%,-1.7,-0.5,1.3,1.8
COc1ccc(C(=O)Nc2ccccc2C(=O)Nc2cccnc2)cc1,-7.4,3.5%,-0.6,0.6,-21.6,3.5
CN(C)S(=O)(=O)c1ccc(N2CCCC2)c(C(=O)N2CCN(S(=O)(=O)c3ccc(F)cc3)CC2)c1,6.4,-0.5%,-1.0,0.3,-5.4,1.7
Cc1cc(NC(=O)CCC(=O)N(CC(=O)NC2CCCC2)Cc2ccc3c(c2)OCO3)no1,4.7,6.4%,-2.6,0.3,1.8,1.5
COc1ccc(C(=O)Nc2cc([N+](=O)[O-])ccc2N2CCN(C)CC2)cc1,-1.9,-1.8%[38.3 µM],-13.1,0.4,0.5,-3.3
O=C(COc1ccccc1F)Nc1cc(S(=O)(=O)Nc2cccc(Cl)c2)ccc1O,7.0,7.1%,-12.1,1.4,-4.8,-3.2
COc1ccc([N+](=O)[O-])cc1NC(=O)C(C)Sc1nc(-c2ccccc2)cs1 (stereo unspecified),-7.5,4.1%,-8.8,0.3,-6.6,-4.5
Cc1noc(/C=C/c2cccs2)c1S(=O)(=O)N1CCC(C(=O)NCCCN2CCCC(C)C2)CC1 (stereo unspecified),-2.6,3.5%,-6.6,0.7,-0.9,7.7
COc1ccc(C(C(=O)NC(C)(C)C)N(Cc2cccnc2)C(=O)CCC(=O)Nc2cc(C)on2)cc1 (stereo unspecified),3.3,-1.0%,-3.7,-1.4,-3.1,-5.8
CCc1ccccc1NC(=O)CN(c1ccc(OC)cc1OC)S(=O)(=O)c1ccccc1,-6.1,1.3%,-15.8,1.9,7.5,-3.2
COc1ccc(NC(=O)c2cc(S(=O)(=O)N3CCc4ccccc43)cn2C)c(OC)c1,-16.4,-0.7%,-2.4,0.9,0.0,0.1
Cc1ccc(CNS(=O)(=O)c2ccc3c(c2)NC(=O)CO3)cc1,6.7,2.4%,-17.7,-1.3,-9.2,1.9

# Results in Six1-Eya2 blk and D2 agonist, for some of the entries so far:
Molecule | Six1-Eya2 blk | D2 agonist
CCOc1c(C)cc(S(=O)(=O)NCc2ccccn2)c(C)c1C | 2.2 | 7.7
CC(=O)Nc1ccc(NC(=O)CSc2nnc(-c3ccc(NS(C)(=O)=O)cc3)n2C)cc1C | -1.7 | -5.3
O=C(COc1ccccc1F)Nc1cc(S(=O)(=O)Nc2cccc(Cl)c2)ccc1O | 7.0 | -3.2
Clc1ccc(-n2c(SCc3nc4ccccc4[nH]3)nnc2-c2ccncc2)cc1 | -0.9 | -0.3
O=C(c1ccc(Cl)cc1)N1N=C(c2ccccn2)CC1(O)C(F)(F)F (stereo unspecified) | 3.6 | 3.4
CCCCn1c(N)c(N(CC)C(=O)c2ccc(Cl)c([N+](=O)[O-])c2)c(=O)[nH]c1=O | 5.1 | -1.9

# Source: PubChem
